KCNQ2 inh – KCNQ2 channel blockers in CHO-K1 cells – cell-based, FluxOR thallium flux, B-score, primary screen (AID 2156); O88943; 20 min; stronger effect = lower value; only compounds with negative scores are shown here; some inactives read as strong as hits; B-score at 10 µM; 310,000 compounds, 1.1% hits;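 active = fluorescence ratio B-score at most minus 3 library SDs, with starting brightness B-score within 2 library SDs, cut at about -5.5 in these data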
Target sequence (O88943 whole entry, looked up): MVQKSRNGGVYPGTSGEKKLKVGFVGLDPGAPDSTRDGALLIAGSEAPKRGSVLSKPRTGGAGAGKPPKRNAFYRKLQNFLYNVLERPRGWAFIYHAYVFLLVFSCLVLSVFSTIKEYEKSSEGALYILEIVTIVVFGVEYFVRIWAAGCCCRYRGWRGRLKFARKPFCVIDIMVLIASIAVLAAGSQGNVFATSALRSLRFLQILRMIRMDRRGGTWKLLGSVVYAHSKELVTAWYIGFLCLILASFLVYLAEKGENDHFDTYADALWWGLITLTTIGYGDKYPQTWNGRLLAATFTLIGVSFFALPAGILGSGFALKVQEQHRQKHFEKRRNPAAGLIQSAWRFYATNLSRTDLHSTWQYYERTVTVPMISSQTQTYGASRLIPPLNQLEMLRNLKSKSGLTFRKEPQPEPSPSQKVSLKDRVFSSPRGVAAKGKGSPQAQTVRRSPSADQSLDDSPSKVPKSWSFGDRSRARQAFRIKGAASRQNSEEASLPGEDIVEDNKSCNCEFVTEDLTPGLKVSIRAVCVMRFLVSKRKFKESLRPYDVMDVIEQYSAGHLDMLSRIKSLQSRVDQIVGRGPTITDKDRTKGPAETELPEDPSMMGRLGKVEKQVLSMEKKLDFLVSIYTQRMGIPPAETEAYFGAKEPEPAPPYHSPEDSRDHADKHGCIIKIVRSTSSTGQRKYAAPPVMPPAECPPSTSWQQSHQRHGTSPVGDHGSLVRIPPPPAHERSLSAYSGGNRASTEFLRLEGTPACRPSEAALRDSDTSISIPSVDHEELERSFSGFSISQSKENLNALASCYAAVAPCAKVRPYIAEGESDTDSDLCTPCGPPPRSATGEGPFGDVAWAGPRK
KCNQ2 inh baseline – further read-out of KCNQ2 inh, marked with its call; B-score; measured here: initial fluorescence intensity artifact check;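 brightness before thallium and not channel activity; 0 = typical well and far values either way flag optical interference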
* hit, by the source's call; i = inactive. An excerpt, so the mix of outcomes need not match the whole.

SMILES	KCNQ2 inh	KCNQ2 inh baseline
Cc1ccc(CNC(=O)C2CCCN(S(=O)(=O)c3cnc[nH]3)C2)cc1 (stereo not given)	i	2.5
CCOc1ccccc1NC(=O)NC(=O)N(C)S(C)(=O)=O	i	1.8
Cc1ccc(C)c(Oc2cc(NN3CCCCC3)c([N+](=O)[O-])cc2[N+](=O)[O-])c1	i	-1.1
CC(=O)N1CCC(C(=O)c2ccc(Cl)cc2)CC1	i	2.3
O=C(NCc1nc2ccccc2[nH]1)C1=C[C@H](c2ccc(Br)cc2)C[C@H](OCc2ccc(CO)cc2)O1	i	-0.72
O=C(Nc1nncs1)C(Sc1ccccc1)c1ccccc1 (stereo not given)	i	2.6
CN(CC(=O)Nc1cccc(F)c1)C(=O)/C=C/c1ccc2ccccc2n1	i	1.1
Cn1cnc2c(oc3ccccc32)c1=O	i	4.1
CCOc1ccccc1Nc1ncnc2c1cnn2-c1ccccc1	i	-0.07
COc1nnc(-c2ccc(N3CCCCC3)c(NC(=O)C3CCCCC3)c2)c2ccccc12	-6.2*	0.66*
COc1ccc(OCCC(=O)NCC23CC4CC(CC(C4)C2)C3)cc1	i	-0.85
O=C(Nc1nnc(S(=O)(=O)N2CCOCC2)s1)c1cccc(Br)c1	i	-0.18
COc1ccc(OC)c(-n2c(CNC3CCN(Cc4ccccc4)CC3)nc3ccccc3c2=O)c1	i	0.08
Cc1cc2nc(CSc3ccccc3)cc(=O)n2[nH]1	i	0.01
Cc1ccc(N2CC(c3nc4ccccc4[nH]3)CC2=O)c(C)c1 (stereo not given)	i	-0.53
CN1CCN(C2=Nc3cc(Cl)ccc3Nc3ccccc32)CC1	i	-1.5
CCc1ccc(NC(=O)CS(=O)CC(=O)N2CCN(c3ccccc3F)CC2)cc1 (stereo not given)	i	-2.4
Cc1cccc(-c2nc(CN3CCCC(C(=O)NC4CCCCC4)C3)c(C)o2)c1 (stereo not given)	i	0.09
COc1ccc(/C=N/NC(=O)c2cccc([N+](=O)[O-])c2)cc1OC	i	-0.03
CSC1=N/C(=C\c2ccc(C)o2)C(=O)S1	i	3
COc1ccc(Nc2nc(NCc3ccco3)nc(N)c2[N+](=O)[O-])cc1	i	-0.8
CCCn1c(SCC#N)nc2c(c1=O)C1(CCCC1)Cc1ccccc1-2	-6.4*	-1.2*
Cc1ccc(C(=O)CCC(=O)Nc2ncccc2O)cc1	i	-0.85
O=C(Nc1nccs1)c1ccc(CSc2nnnn2-c2ccccc2)cc1	i	-1.5
CC1C(=O)N2CCCc3cc(NC(=O)C(=O)NCCc4ccc(F)cc4)cc1c32 (stereo not given)	i	-0.03

Additional results.
SMILES	KCNQ2 inh	KCNQ2 inh baseline
COc1ccc2c(c1)C(=O)CC(O)(C(F)F)O2 (stereo not given)	i	2.1
COC(=O)CCC(=O)OC1(C)C(=O)C2=CN(C3CC3)C(c3ccc(OC)cc3)=CC2=C(Br)C1=O (stereo not given)	i	1.3
CCC(CC)C(=O)c1c[nH]c(C(=O)NCc2ccccc2)c1	i	-0.38
CCOC(=O)c1cc(C(C)=O)c(=O)n(C)c1N	i	-0.56
CC(=O)Oc1oc(-c2ccccc2)nc1C=Nc1ccc(N(C)C)cc1	i	0.42
Cc1nn(C)cc1C(=O)Nc1ccccc1Br	i	-0.77
CC(C)(C)c1cc(C(=O)N2CCc3ccccc3C2)ccn1	i	-0.64
O=C(CSc1ccc(-c2ccc(Br)cc2)nn1)NCC1CCCO1 (stereo not given)	i	3.2
CCN(Cc1ccccc1)S(=O)(=O)c1c(C)n(C)c(=O)n(C)c1=O	i	0.63
CC(C)(C)OC(=O)NCc1ccc(CNC(=O)c2[nH]cnc2C(=O)N[C@@H](Cc2ccccc2)C(=O)OCc2ccccc2)cc1	i	0.09
Cc1cc(C(=O)CN2C(=O)NC3(CCCc4ccccc43)C2=O)c(C)n1Cc1cccs1 (stereo not given)	i	0.02
CC(C)c1ccc2oc(=O)cc(CN3CCOCC3)c2c1	i	2
COc1ccc(CN2CCCC(CNC(=O)c3ccc(F)cc3)C2)cc1OC (stereo not given)	i	-1.1
CCOc1ccc2nc(NCCCNS(=O)(=O)c3ccccc3)c(C#N)cc2c1	i	3.2
Cc1ccc(C2=NS(=O)(=O)N(C)C(C(=O)NCc3ccco3)=C2)cc1	i	-1
CC(=O)N1CCc2cc(S(=O)(=O)NCCC3=CCCCC3)ccc21	i	1.6
O=C(NC1CC2CCCC(C1)N2C(=O)Nc1ccccc1Cl)C1CC1 (stereo not given)	i	2.4
c1csc(CNc2nc(-c3cccs3)nc3ccccc23)c1	i	-1.3
CCOC(=O)N1CCN(CC(O)c2c[nH]c3ccccc23)CC1 (stereo not given)	i	0.59
Cc1cc(C)n(CC(O)COc2c(C)cccc2C)n1 (stereo not given)	i	-1.7
O=C(O)CCn1c(SCCOc2ccccc2)nc2ccccc21	i	0.85
COc1cccc(/C=N/NC(=O)c2c(-c3ccccc3)noc2C)c1	i	-2.6
O=C(NCc1ccc2c(c1)OCO2)C(=O)NCC1CCCO1 (stereo not given)	i	-1.5
O=C(NCc1ccccc1)C(c1ccco1)N(C(=O)c1csnn1)c1ccccc1 (stereo not given)	i	-0.61
Cc1nn(C(C)C(=O)NCc2ccccc2F)c(=O)c2nn(-c3ccccc3)c(C)c12 (stereo not given)	i	1.2

(further entries)
SMILES	KCNQ2 inh	KCNQ2 inh baseline
CN(C)c1ccc(C(=O)N2CCNC(=O)C2CC(=O)Nc2ccc(F)cc2)cc1 (stereo not given)	i	1.9
CCN(CC)S(=O)(=O)c1cccc2c(N(C)C)cccc12	i	0.94
CC(CCc1ccccc1)NC(=O)COC(=O)c1ccccc1O (stereo not given)	i	-1
COc1ccc(CCN(C)C(=O)CSc2ncnc3sccc23)cc1OC	i	1.1
CCOc1ccc2nc(SCC(=O)NCc3ccccc3OC)[nH]c2c1	i	-0.16
Cc1ccc(Nc2ccc(NCc3ccccc3)nn2)cc1C	i	-2.1
C=CCn1c(SCC(=O)NCCc2ccccc2)nc2c([nH]c3ccccc32)c1=O	i	-0.43
CC1CCc2c(C(=O)N3CCN(S(=O)(=O)c4cccs4)CC3)csc2C1 (stereo not given)	i	-0.13
O=C(c1ccco1)N1CCN(Cc2nc(-c3cccs3)no2)CC1	i	-0.74
Cc1cc(NC(=O)CN2CCOCC2)n(-c2ccccc2)n1	i	-0.15
O=C(Nc1cccc(Br)c1)c1ccccc1-c1ccccc1	i	-1.9
O=C(NC1CCCCC1)N1CCCCCCC1	i	1.8
O=C(CN1CCOCC1)Nc1cccc([N+](=O)[O-])c1	i	0.96
O=C(N/N=C/c1cccc(O)c1)c1cc(C2CC2)nc2ccccc12	i	-0.47
CCC(C)NC(=O)C1CCC(CNS(=O)(=O)c2ccc3c(c2)CC(C)N3C(=O)C2CC2)CC1 (stereo not given)	i	-0.65
COc1ccc(C2C3=C(CC(C)(C)CC3=O)Oc3ncn(Cc4ccccc4)c(=N)c32)cc1 (stereo not given)	i	-0.92
C/C(=N\N(C)C)C1=C(O)c2ccccc2C1=O	i	-1.2
CCn1nc(C)c(CN2CCC(Oc3ccc(C(=O)N4CCCC4)cc3)CC2)c1C	i	-0.04
CC(C)(C)OC(=O)N1CCC(c2c(C(=O)NCC3CCN(C4CCCC4)C3)cnn2-c2ccccc2)CC1 (stereo not given)	i	0.09
CCO[C@H]1OC(C(=O)NCc2nc3ccccc3[nH]2)=C[C@@H](C2CCCCC2)[C@@H]1CCCO	i	-1.2
Cc1c(NC(=S)NC(=O)C(C)(C)C)cccc1[N+](=O)[O-]	i	-1.9
O=C(CCS(=O)(=O)c1ccccc1)Nc1nc2c(s1)COc1ccccc1-2	i	0.18
O=C(NCc1ccccc1)C1=C[C@@H](c2ccc(Br)cc2)C[C@@H](OCc2ccc(CO)cc2)O1	i	0.63
CCOc1cccc(=O)c2c(C)n(-c3ccc(C(=O)O)cc3)c(C)c12	i	2.8
COc1ccc(Cn2c(=O)[nH]c3cc(C(=O)N4CCN(c5ccccc5F)CC4)ccc3c2=O)cc1	i	0.71

At a glance, part of the list above.
SMILES	KCNQ2 inh	KCNQ2 inh baseline
C=CCn1c(SCC(=O)NCCc2ccccc2)nc2c([nH]c3ccccc32)c1=O	i	-0.43
CC1CCc2c(C(=O)N3CCN(S(=O)(=O)c4cccs4)CC3)csc2C1 (stereo not given)	i	-0.13
O=C(c1ccco1)N1CCN(Cc2nc(-c3cccs3)no2)CC1	i	-0.74
Cc1cc(NC(=O)CN2CCOCC2)n(-c2ccccc2)n1	i	-0.15
O=C(Nc1cccc(Br)c1)c1ccccc1-c1ccccc1	i	-1.9
O=C(NC1CCCCC1)N1CCCCCCC1	i	1.8
O=C(CN1CCOCC1)Nc1cccc([N+](=O)[O-])c1	i	0.96
O=C(N/N=C/c1cccc(O)c1)c1cc(C2CC2)nc2ccccc12	i	-0.47
CCC(C)NC(=O)C1CCC(CNS(=O)(=O)c2ccc3c(c2)CC(C)N3C(=O)C2CC2)CC1 (stereo not given)	i	-0.65
COc1ccc(C2C3=C(CC(C)(C)CC3=O)Oc3ncn(Cc4ccccc4)c(=N)c32)cc1 (stereo not given)	i	-0.92
C/C(=N\N(C)C)C1=C(O)c2ccccc2C1=O	i	-1.2
CCn1nc(C)c(CN2CCC(Oc3ccc(C(=O)N4CCCC4)cc3)CC2)c1C	i	-0.04
CC(C)(C)OC(=O)N1CCC(c2c(C(=O)NCC3CCN(C4CCCC4)C3)cnn2-c2ccccc2)CC1 (stereo not given)	i	0.09
CCO[C@H]1OC(C(=O)NCc2nc3ccccc3[nH]2)=C[C@@H](C2CCCCC2)[C@@H]1CCCO	i	-1.2
Cc1c(NC(=S)NC(=O)C(C)(C)C)cccc1[N+](=O)[O-]	i	-1.9
O=C(CCS(=O)(=O)c1ccccc1)Nc1nc2c(s1)COc1ccccc1-2	i	0.18
O=C(NCc1ccccc1)C1=C[C@@H](c2ccc(Br)cc2)C[C@@H](OCc2ccc(CO)cc2)O1	i	0.63
CCOc1cccc(=O)c2c(C)n(-c3ccc(C(=O)O)cc3)c(C)c12	i	2.8
COc1ccc(Cn2c(=O)[nH]c3cc(C(=O)N4CCN(c5ccccc5F)CC4)ccc3c2=O)cc1	i	0.71

Remaining list, next part.
SMILES	KCNQ2 inh	KCNQ2 inh baseline
COc1ccc(NC(=O)NCCCCc2ccccc2)c(OC)c1	i	-0.32
CCS(=O)(=O)N1CCN(c2ccc(Cl)cc2[N+](=O)[O-])CC1	i	-1.6
CCCCCn1c(SCc2cccc(C)c2)nc2c1c(=O)[nH]c(=O)n2C	i	0.04
Cc1ccc(OC(=O)c2cc(=O)c3ccccc3o2)cc1	i	1.1
COc1ccc(NC(=S)Nc2ccc(F)cc2)c(OC)c1	i	0.04
COc1ccc(C(=O)C2CCCN(Cc3c(F)ccc(F)c3F)C2)c(OC)c1 (stereo not given)	i	-0.78
Cc1ccccc1S(=O)(=O)Cc1ccc(C(=O)NCc2ccccc2)o1	i	-0.01
CCOc1ccc(CN2CCN(C(=O)c3cccc(F)c3)CC2)cc1	i	-0.2
COc1cccc(NC(=O)CSCC(=O)O)c1	i	-1.2
COc1ccccc1CCC(=O)OCC(=O)Nc1ccc(C)c(S(=O)(=O)N2CCCCC2)c1	i	-0.01
COc1ccc(NC2CCCN(C(=O)CCc3cccc(F)c3)C2)cc1 (stereo not given)	i	0.3
Cc1nc(-c2ccc(Cl)cc2)sc1C1(C)CC(c2ccc(Br)cc2)=NO1 (stereo not given)	i	-0.55
O=C(O)c1cc2c(cc1NC(=O)c1ccccc1OC(F)F)OCCCO2	i	0.34
COc1ccc(NC(=O)c2cccnc2NCCc2ccccc2)cc1	i	1
COc1ccc(-c2cc3nc(CCl)[nH]c(=O)c3s2)cc1	i	-0.73
CCNC(=S)NNC(=O)c1ccccc1Cl	i	0.7
O=C(CSc1nc(Nc2ccccc2)nc(N2CCOCC2)n1)N1CCc2ccccc21	i	-0.88
Cc1ccc(C(=O)NCC(=O)Nc2ccc(C)c(S(=O)(=O)Nc3ccc(Cl)cc3)c2)s1	i	-1.4
CC1(C)CC(=O)C2=C(C1)Nc1ccccc1S2	i	0.55
COc1ccc(/C=C/C(=O)c2c(C)nc3ccccn23)cc1	i	0.36
CCOc1ccccc1C(=O)NC(C(=O)NCc1ccc(F)cc1)C(C)C (stereo not given)	i	3
COc1ccc(-c2cc(C(=O)Nc3cc(Br)ccc3O)no2)cc1	i	0.68
CCN(CC)S(=O)(=O)c1cccc(-c2nnc(SCc3ncc(-c4ccccc4)o3)n2C)c1	i	-0.43
CCCCCC[N+](C)(C)CC/C=C1/c2ccccc2Sc2ccc(Cl)cc21	i	0.43
CC(C(=O)Nc1ccc2nccnc2c1)N1C(=O)C2C3C=CC(C3)C2C1=O (stereo not given)	i	0.15

Later entries
SMILES	KCNQ2 inh	KCNQ2 inh baseline
O=C(Cc1cccc2ccccc12)NN1C(=O)/C(=C\c2cccnc2)SC1=S	i	-0.2
COc1ccc(NC(=O)C2CCN(c3cnccn3)CC2)cc1OC	i	-0.18
CCC(COC)NCc1cn(-c2ccc(OC)cc2)nc1-c1cccc(F)c1 (stereo not given)	i	2.9
Cc1ccc(OCc2ccccc2C)c([N+](=O)[O-])n1	i	3.1
Cc1cc(C)n(C(=O)CNC(=O)C2COc3ccccc3O2)n1 (stereo not given)	i	0.04
O=C(CSc1nnc(-c2cccnc2)n1Cc1ccco1)c1ccc(Br)cc1	i	-2.3
COc1cccc(/C=N/NC(=O)N/N=C/c2cccc(OC)c2O)c1O	i	1.2
COC(=O)CSc1nc(NC#N)nc(NC(C)(C)C)n1	i	1.2
Cc1cc(=O)[nH]c(N/N=C/c2ccccc2Cl)n1	i	-1.3
COc1ccc(-n2c3c(cc(C(=O)NC4CCSC4=O)c2=O)C(=O)CC(C)(C)C3)cc1 (stereo not given)	i	0.67
COC(=O)c1ccc(NC2(C#N)C(=O)Nc3ccccc32)cc1 (stereo not given)	i	1.2
Cn1nnc(NC(=O)c2ccccc2)n1	i	0.12
COCCn1c(SCc2ccccc2F)nc2ccccc2c1=O	i	-0.69
COc1ccc(C2c3[nH]c4ccccc4c3CCN2CCCn2cccn2)c(C)c1C (stereo not given)	i	0.01
CCOc1ccc(C(=O)NC2CCN(C(=O)NCc3ccccc3)CC2)cc1	i	1.1
O=C(CCc1ccc(S(=O)(=O)NCc2ccccc2)cc1)N1CCN(Cc2ccc3c(c2)OCO3)CC1	i	-1.5
C=CC[n+]1ccc2ccccc2c1C	i	0.59

Screening results as filed in PubChem BioAssay.
